Screening data: PubChem, National Center for Advancing Translational Sciences (NCATS)
2A StopGo = High Throughput Screening for Foot and Mouth Disease Virus Antivirals. actives 1.2% (n = 410,000). Potency, µM (titrated, usually from 57.9 µM), inactives show at the top dose signal change, negative = less light. human cells with a luciferase reporter of 2A StopGo recoding; control for the full effect not named in the record; active = well fitted falling curve with a large enough effect; inconclusive = small, poorly fitted or top-dose-only effect; inactive = no such curve, though single readings can be large or run the other way; tested in HEK293T cells; further: on the % scale 0 is the no-effect control and ±100 the full control effect; nearly all actives have a fitted effect of over 45% in size; luciferase light after 4 h
Cruzain Triton = qHTS Assay for Promiscuous and Specific Inhibitors of Cruzain (with detergent). Cruzipain (Trypanosoma cruzi), P25779. purified cruzain, Z-FR-AMC fluorescence, 0.01% Triton. Potency, µM, for the others: max response, negative = inhibition, usual class: inhibitors. actives 0.43% (n = 200,000). AID 1478, 2009;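 further: plate controls were neutral wells for no effect and buffer without enzyme for full effect; nearly all actives have a fitted effect of over 40% in size; top concentration of the series not given in the record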
Target sequence (P25779 123-467 limits assumed): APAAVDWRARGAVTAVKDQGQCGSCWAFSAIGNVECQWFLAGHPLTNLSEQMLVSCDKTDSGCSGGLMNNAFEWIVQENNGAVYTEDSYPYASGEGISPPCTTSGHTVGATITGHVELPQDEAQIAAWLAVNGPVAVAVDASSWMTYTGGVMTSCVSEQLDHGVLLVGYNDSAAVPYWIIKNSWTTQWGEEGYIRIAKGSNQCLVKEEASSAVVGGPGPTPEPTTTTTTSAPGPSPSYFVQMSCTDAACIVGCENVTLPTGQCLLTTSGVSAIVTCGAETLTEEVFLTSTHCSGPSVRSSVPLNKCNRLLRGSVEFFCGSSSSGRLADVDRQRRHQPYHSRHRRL
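Read-out: AMC fluorescence (360 nm excitation, 450 nm emission), four reads over 2 min, first-to-third difference used. Conditions: cruzain 1.5 nM, Z-FR-AMC 2 uM, pH 5.5 acetate, 5 mM DTT, 0.01% Triton X-100.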
Marburg entry inh = qHTS for inhibitors of binding or entry into cells for Marburg Virus | Marburg virus pseudotyped entry inhibition, cell reporter; control for the full effect not named in the record; about a third of the inactives were read at about 46 µM | Potency, µM (titrated, usually from 37.8 µM), for the others: at the highest dose activity change, negative = inhibition, actives largely listed as inhibitors | actives 1.8% (n = 300,000) | AID 540276, 2011; active = well fitted inhibition curve with a large enough effect; inconclusive = small, poorly fitted or top-dose-only effect, or effect the other way; inactive = flat fitted curve, though single readings scatter; tested in HEK293 cells; about a fifth of its hits are not listed in these tables; further: on the % scale 0 is the no-effect control and ±100 the full control effect; luciferase read-out
RE007 growth inh = qHTS Assay for Inhibitors of the HIV-1 protein Vpr; S. pombe RE007 Vpr strain, BacTiter-Glo ATP luminescence, 24 h; control for the full effect not named in the record; Potency, µM (highest dose often 92.2 µM), for the others: top-dose activity change, negative = less growth; actives 0.21% (n = 360,000); AID 651644, 2012; active = well fitted falling curve with a large enough effect; inconclusive = small, poorly fitted or top-dose-only effect; inactive = no such curve, though single readings can be large or run the other way;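 further: on the % scale 0 is the no-effect control and ±100 the full control effect; nearly all actives have a fitted effect of over 50% in size; the assay follows cell death caused by Vpr and the record does not say whether a fall means rescue or toxicity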
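Fission yeast strain RE007, carrying one chromosomally integrated HIV-1 vpr copy, was seeded at OD 0.01 in PMG+AL medium with 23 nL pinned compound. After 24 h at 30 °C and 99% humidity, viability was read by BacTiter-Glo luminescence.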
LASV entry inh = qHTS for Inhibitors of binding or entry into cells for Lassa Virus; Lassa virus pseudotype entry inhibition, cell reporter; control for the full effect not named in the record; Potency, µM (titrated, usually from 37.9 µM), for the others: at the highest dose activity change, negative = inhibition, actives largely listed as inhibitors; actives 1.2% (n = 300,000); active means well fitted inhibition curve with a large enough effect; inconclusive means small, poorly fitted or top-dose-only effect, or effect the other way; inactive means flat fitted curve, though single readings scatter; tested in HEK293 cells; further: on the % scale 0 is the no-effect control and ±100 the full control effect; nearly all actives have a fitted effect of over 50% in size; luciferase read-out
SARS PLpro yeast = qHTS of Yeast-based Assay for SARS-CoV PLP; S. cerevisiae expressing SARS-CoV PLpro, growth rescue; control for the full effect not named in the record; Potency, µM (series often up to 32.9 µM), inactives show at the top dose activity, positive = growth rescue; actives 0.19% (n = 330,000); active means well fitted rising curve with a large enough effect; inconclusive means small, poorly fitted or top-dose-only effect; inactive means no such curve, though single readings can be large or run the other way; further: 0% is about no effect; nearly all actives have a fitted effect of over 55% in size; growth read by luminescence after 48 h
NS1 inh = qHTS Assay for Inhibitors of Influenza NS1 Protein Function | S. cerevisiae slowed by influenza A NS1, growth recovery by OD600 | Potency, µM (doses to about 46.1 µM), for inactives: top-dose activity, positive = more growth | actives 0.4% (n = 270,000) | AID 2326, 2010; active means well fitted rising curve with a large enough effect; inconclusive means small, poorly fitted or top-dose-only effect; inactive means no such curve, though single readings can be large or run the other way; further: nearly all actives have a fitted effect of over 50% in size
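Compounds were scored for reversing the slow growth caused by influenza A NS1 in S. cerevisiae, measured by optical density at 600 nm. Assay medium contained 2% galactose at pH 6.0; NS1-free yeast of the same strain were the positive control.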
Cruzain inh noDet = qHTS Assay for Promiscuous and Specific Inhibitors of Cruzain (without detergent); Potency, µM, for inactives: max response, negative = inhibition, usual class: inhibitors; actives 2.3% (n = 200,000); Cruzipain (Trypanosoma cruzi), P25779; purified cruzain, Z-FR-AMC fluorescence, no detergent;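 further: plate controls were enzyme without inhibitor for no effect and buffer without enzyme for full effect; nearly all actives have a fitted effect of over 40% in size; top concentration of the series not given in the record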
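Detergent-free condition (0.00005% Triton X-100) in acetate buffer pH 5.5 with DTT. 1.5 nM enzyme and compound were pre-mixed 15 min, then 2 uM Z-FR-AMC substrate added; reaction progress from fluorescence change between first and third reads (60 s).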
Active calls of the source: *; ? = inconclusive; . = not tested or not shown; & = joins results of further samples; [ ] = another dose, or the depositor's remark. Unless noted, the call rests on the fitted dose curve; in most records, active means well fitted curve in the direction sought with a large enough effect; inconclusive means small, poorly fitted or top-dose-only effect, or another doubt; inactive means no such curve, though single readings can be large; an effect the other way counts as inactive or inconclusive. Potency means the concentration at half of the fitted maximal effect.

SMILES | 2A StopGo | Cruzain Triton | Marburg entry inh | RE007 growth inh | LASV entry inh | SARS PLpro yeast | NS1 inh | Cruzain inh noDet
CCc1cccc(-n2nnc(-c3nsc(NC(=O)c4cccc(OC)c4)n3)c2C)c1 | ? | 1.6% | . | . | -6%[46.1 µM] | . | . | -10%
O=S(=O)(c1ccc(F)c(F)c1)N1CCC2(CC1)OCCO2 | 3% | . | . | 7% | . | 3% | 6% | .
Cc1ccc(Cn2nnnc2CN2CCC(NC(=O)c3ccc(Br)cc3)CC2)cc1 | -30% | -1.6% | -11% | 1% | 3% | 7% | 4% | 3%
C=CCc1c(C)nc(-c2ccccc2)nc1Nc1ccccc1O | 0% | -7.8% | ? | -5% | 10% | -65% | -7% | 7%
CCCc1cc(=O)[nH]c(SCC(=O)NC2CCCc3ccccc32)n1 (stereo unspecified) | -12% | . | . | 11% | . | 0% | 15% | .
COc1ccc2cc(CNc3ccccc3)c(=O)n(CC(=O)Nc3ccc(C(C)=O)cc3)c2c1 | ? | -12% | . | . | 5%[46.1 µM] | . | . | -10%
O=S(=O)(Cc1ccccc1)c1cnc2ccccc2n1 | 11µM* | -3.2% | -14% | -29% | -13% | -6% | -15% | 7%
O=C(COC(=O)c1cnccn1)NCc1ccc2c(c1)OCO2 | 0% | . | 1%[46.1 µM] | -6% | 3% | -4% | . | .
COC(=O)Cn1nc(-c2ccccc2)n(-c2ccccc2)c1=S | -1% | -4.4% | -4% | -13% | 12% | 5% | -8% | 4%
COc1cc(CNCCc2ccccc2F)ccc1OCC(=O)N1CCCCC1 | -2% | . | -8%[46.1 µM] | 8% | 8% | 0% | . | .
CC1CCCN(C(=O)CSc2nnc3n(C4CCCC4)c(=O)c4ccccc4n23)C1 (stereo unspecified) | -6% | 3.6% | -15% | 4% | ? | 17% | 3% | 7%
Cc1ccc2oc(C(=O)N(CCO)Cc3ccccc3)c(C)c2c1 | -5% | . | 12%[46.1 µM] | -14% | 14%[46.1 µM] | -2% | -27% | .
COc1ccc(NC(=O)c2cc(OC)c(OC)c(OC)c2Br)cc1OC | 0% | -1.7% | -7% | -8% | -1% | 10% | -11% | 15%
CCOc1ccc(N(C(C)C(=O)NC2CCCCCC2)S(C)(=O)=O)cc1 (stereo unspecified) | 8% | -2.5% | 4% | 12% | ? | 1% | -12% | -4%
CCOC(=O)C1CCN(CCCSc2ccc(Cl)cc2)CC1 | -22% | . | ? | -3% | 14% | 11% | -30% | .
COn1c(=O)c(-c2ccc(F)cc2)[n+]([O-])c2ccccc21 | 1% | . | 10% | -9% | 1% | 0% | -3% | .
O=C(CCCN1C(=O)c2cccc3cccc(c23)C1=O)N1CCN(c2ccc(F)cc2)CC1 | 22µM* | . | ? | 3% | ? | 0% | 3% | .
COc1ccccc1NC(=S)NC(=O)/C=C/c1cccs1 | 3% | . | 2%[46.1 µM] | 17% | -16% | 28% | . | .
Cc1cnn(-c2cc(N/N=C/c3ccc(F)cc3)ncn2)c1 | -8% | 0.6% | 5% | -15% | 6% | 0% | -4% | -29%
CN(c1ccccc1)S(=O)(=O)c1cccc(C(=O)OCC(=O)NCc2ccc3c(c2)OCO3)c1 | ? | -3.4% | 0% | -5% | 5% | -7% | 22% | 15%

Eight structures already listed, arranged by length of the SMILES, highest first.
SMILES | 2A StopGo | Cruzain Triton | Marburg entry inh | RE007 growth inh | LASV entry inh | SARS PLpro yeast | NS1 inh | Cruzain inh noDet
COc1ccc2cc(CNc3ccccc3)c(=O)n(CC(=O)Nc3ccc(C(C)=O)cc3)c2c1 | ? | -12% | . | . | 5%[46.1 µM] | . | . | -10%
CC1CCCN(C(=O)CSc2nnc3n(C4CCCC4)c(=O)c4ccccc4n23)C1 (stereo unspecified) | -6% | 3.6% | -15% | 4% | ? | 17% | 3% | 7%
Cc1ccc(Cn2nnnc2CN2CCC(NC(=O)c3ccc(Br)cc3)CC2)cc1 | -30% | -1.6% | -11% | 1% | 3% | 7% | 4% | 3%
COc1ccc(NC(=O)c2cc(OC)c(OC)c(OC)c2Br)cc1OC | 0% | -1.7% | -7% | -8% | -1% | 10% | -11% | 15%
COC(=O)Cn1nc(-c2ccccc2)n(-c2ccccc2)c1=S | -1% | -4.4% | -4% | -13% | 12% | 5% | -8% | 4%
O=C(COC(=O)c1cnccn1)NCc1ccc2c(c1)OCO2 | 0% | . | 1%[46.1 µM] | -6% | 3% | -4% | . | .
C=CCc1c(C)nc(-c2ccccc2)nc1Nc1ccccc1O | 0% | -7.8% | ? | -5% | 10% | -65% | -7% | 7%
CCOC(=O)C1CCN(CCCSc2ccc(Cl)cc2)CC1 | -22% | . | ? | -3% | 14% | 11% | -30% | .

Later entries:
SMILES | 2A StopGo | Cruzain Triton | Marburg entry inh | RE007 growth inh | LASV entry inh | SARS PLpro yeast | NS1 inh | Cruzain inh noDet
CCOCCCNC(=O)CN1C(=O)/C(=C/c2ccccc2)Sc2ccccc21 | 0% | -9.7% | -37% | -12% | -13% | 8% | 2% | ?
CCOc1cc2c(cc1OCC)C(CC(=O)OC)N(C(=O)Nc1cc(C)cc(C)c1)CC2 (stereo unspecified) | -3% | 0.8% | . | . | 12%[46.1 µM] | . | . | -5%
O=C(O)c1cc(N/N=C/C=C/c2ccccc2[N+](=O)[O-])ccc1Cl | 72%[activator] | . | . | -16% | . | 1% | 8% | .
COc1ccc(NC(=O)Cn2nnc(C(=O)NCc3cccs3)c2N)c(OC)c1 | 12% | . | . | -4% | . | 2% | 9% | .
CCCOc1cccc(-c2cc(C(=O)NN)c3ccccc3n2)c1 | ? | -8.3% | ? | 0% | ? | -1% | ? | -1%
CN1CCN(C(=O)C2=C[C@H](c3ccc(Br)cc3)C[C@H](OCCCCO)O2)CC1 | -14% | . | . | 8% | . | 0% | -1% | .
COc1ccc(Cl)cc1NC(=O)CN1C(=O)CCS(=O)(=O)c2ccccc21 | 7% | -2.7% | 5%&5% | -8% | -13% | 19% | -4% | 2%
Cc1cccc(C)c1NC(=O)CN(C)C(=O)C1CCN(c2ncnc3sc(C)c(C)c23)CC1 | ? | . | ? | 4% | -12% | -1% | . | .
CSCCC(NC(=O)c1ccccc1Br)C(=O)N1CCC(C)CC1 (stereo unspecified) | -6% | . | -10%[46.1 µM] | -3% | 25%[46.1 µM] | 1% | . | .
C/C(Cn1cnc([N+](=O)[O-])n1)=N\NC(=O)c1ccc(F)cc1 | -5% | -0.3% | -30% | -27% | -4% | 25% | 5% | -8%
C/C(CC(=O)Nc1c(C)cc(C)cc1C)=N\NC(=O)OC(C)(C)C | -10% | -3.6% | 15% | 0% | 4% | 9% | 17% | -10%
C/C(=N\NC(=O)c1nnn(-c2nonc2N)c1-c1ccccc1)c1ccccc1O | 29% | . | ? | 4% | ? | 0% | 2% | .
CCc1c(C)nc2nncn2c1Nc1ccc(Cl)cc1 | -8% | -5.0% | -1%[46.1 µM] | . | -1%[46.1 µM] | . | . | -8%
COc1ccc(C2=NN3C(=O)c4c(ccc(OC)c4OC)C3C2)cc1 (stereo unspecified) | -15% | -5.7% | 7% | 6% | 3% | -8% | -23% | 12%
COC(=O)c1ccccc1NCCO | -5% | . | . | 4% | . | 2% | 4% | .
CCSc1nnc(NC(=O)c2cc(-c3ccccc3O)n[nH]2)s1 | 8% | . | -8%[46.1 µM] | 6% | -14% | -2% | 1% | .
COc1ccc2nc(SCC(=O)Nc3ccc(S(=O)(=O)N4CCCC4)cc3)c(C#N)cc2c1 | -22% | -1.9% | 0%&-9% | 26% | -22% | -2% | 12% | 13µM*
CN(CC(=O)N1CCN(c2ccc(F)cc2)CC1)S(=O)(=O)c1ccc(F)cc1 | 0% | 8.7% | -18%&-18% | -8% | -3% | -1% | -4% | 27%
Cc1ccc(N2CCN(C(=O)c3c(C)oc4ncn(CC(C)C)c(=O)c34)CC2)c(C)c1 | -23% | -1.9% | . | . | 3%[46.1 µM] | . | . | ?
O=C(CSc1c2c(nc3cc(Cl)ccc13)CCCC2)N1CCN(c2ccccc2F)CC1 | ? | -6.0% | -2%[46.1 µM] | . | 3%[46.1 µM] | . | . | -30%
CC(=O)c1ccc(S(=O)(=O)N2CCC(NC(=O)c3ccccc3)CC2)cc1 | 6% | . | . | 7% | . | 22% | -7% | .
CCOC(=O)c1c(C)[nH]c(C)c1S(=O)(=O)N1CCC(C(=O)N2CCN(c3cccc(C)c3)C(C)C2)CC1 (stereo unspecified) | -27% | -0.8% | . | . | -25%[46.1 µM] | . | . | ?
CCCC(=O)Nc1ccc(C(=O)NCCc2ccc(F)cc2)cc1 | 25% | -5.1% | ? | -11% | 5% | 27% | 7% | -7%
CC1=CC2=NC(=O)/C(=C\c3ccc(-c4ccc(Cl)cc4)o3)C(=N)N2O1 | . | 0.9% | 19% | . | 8% | 11% | 13% | ?
Cc1ccc(CN2CC(C(=O)N(C)CC(=O)Nc3cccc(F)c3)CC2=O)cc1 (stereo unspecified) | -20% | . | . | 2% | . | -4% | 10% | .
CCc1ccc(NC(=O)CSc2nnc(CNC(=O)c3cccs3)o2)cc1 | -16% | . | 25%[46.1 µM] | -9% | -3%[46.1 µM] | -6% | -9% | .
O=[N+]([O-])c1cccc(-c2noc(-c3cccs3)n2)c1 | 60%[activator] | . | . | 6% | . | 0% | 0% | .
COc1ccc(OCC(=O)N2CCN(CCc3ccncc3)CC2)cc1 | -7% | -1.4% | 7%[46.1 µM] | . | 1%[46.1 µM] | . | . | -3%
